Source: PubChem
HNF4A DNA FP = change in binding of human HNF4A to DNA, primary screen, biochemical, fluorescence polarization, FITC-DNA; Hepatocyte nuclear factor 4-alpha (Homo sapiens), P41235; 1 h; activity change, % at 10 µM; 360,000 tested, 0.3% active; in the data active = activity change above about 30%, passing the limit was not always enough;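 also: controls were the assay level and a saturating level of protein; the project sought stronger binding though the title names inhibitors; some compounds called inactive have numbers as strong as hits; positive values seem to mean higher polarization but the record does not say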
Target sequence (P41235 whole entry, looked up): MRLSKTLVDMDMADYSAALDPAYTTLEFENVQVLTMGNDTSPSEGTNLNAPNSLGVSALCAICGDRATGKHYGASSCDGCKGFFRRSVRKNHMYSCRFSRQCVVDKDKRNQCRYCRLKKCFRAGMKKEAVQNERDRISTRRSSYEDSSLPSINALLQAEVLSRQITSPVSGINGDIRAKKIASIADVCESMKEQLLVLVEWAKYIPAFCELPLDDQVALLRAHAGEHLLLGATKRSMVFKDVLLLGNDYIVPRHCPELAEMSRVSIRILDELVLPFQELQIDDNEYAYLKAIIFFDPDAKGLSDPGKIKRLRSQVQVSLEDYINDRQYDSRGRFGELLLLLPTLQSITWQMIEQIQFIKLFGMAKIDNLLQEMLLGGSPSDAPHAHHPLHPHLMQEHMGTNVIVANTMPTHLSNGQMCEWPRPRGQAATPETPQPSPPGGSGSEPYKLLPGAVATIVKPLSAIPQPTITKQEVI
ALR inh = inhibitors of human ALR sulfhydryl oxidase, primary screen, biochemical, H2O2 detection, HRP-luminol luminescence, single point; purified ALR, DTT oxidation; inhibition, % (concentration not given with the values); 290,000 tested, 3.8% active; FAD-linked sulfhydryl oxidase ALR (Homo sapiens), P55789;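 active = mean and each replicate at 75% or more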;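 also: stock transfer was 7.5 nL into about 7.5 µL; 0% = neutral wells and 100% = wells with inactivated enzyme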
Target sequence (P55789 whole entry, looked up): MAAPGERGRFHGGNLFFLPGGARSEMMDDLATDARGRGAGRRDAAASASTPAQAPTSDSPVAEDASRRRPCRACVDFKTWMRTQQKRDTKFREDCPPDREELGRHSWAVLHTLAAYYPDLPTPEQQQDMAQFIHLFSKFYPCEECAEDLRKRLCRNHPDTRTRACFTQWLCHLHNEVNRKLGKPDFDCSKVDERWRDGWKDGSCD
Beta2AR agonist = beta2AR agonists driving receptor internalization, primary screen, cell-based, FAP fluorogen, flow cytometry | Beta-2 adrenergic receptor (Homo sapiens), P07550 | Am2.2-beta2AR cells; reference of the scale not given here | response, % (concentration not given with the values) | 340,000 tested, 0.43% active | AID 504454, 2011;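 active = response above a set limit, near 3 SD of response in nonfluorescent compounds, cut at about 42% in these data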;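 also: stock transfer was 100 nL into about 11 µL; a reference agonist was the positive control; negative values mostly stem from fluorescent compounds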
UCH37 inh = inhibitors of human UCH37 deubiquitinase, primary screen, biochemical, Ub-AMC cleavage, fluorescence. Ubiquitin carboxyl-terminal hydrolase isozyme L5 (Homo sapiens), Q9Y5K5. AID 588478, 2011. 330,000 tested, 0.33% active. inhibition, % (no concentration beside the values). purified proteasome/UCH37;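 active = mean of two replicates above 20%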;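 also: 0% = compound-free wells with enzyme and 100% = wells lacking proteasome; stock transfer was 100 nL into about 20 µL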
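Material: human UCH37 enzyme supplied as purified proteasome complex. Measure: % inhibition of Ub-AMC cleavage fluorescence. Medium: pH 7.4 Tris-HCl (50 mM) with ovalbumin, ATP-MgCl2, DTT. Times: 30 min preincubation with enzyme, 25 min cleavage at room temperature. Detection: AMC fluorescence intensity at 355/460 nm.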
rRNA inh HTS = reduced GFP signal of wild-type E. coli, primary screen, bacterial rRNA inhibitor project, GFP/RFP fluorescence, OD600, single point; E. coli WT GFP vs humanized-ribosome RFP mutants, 24 h; stronger effect = lower value; DMSO median 0, no signal -100; GFP signal change (wild-type ribosome), % (concentration not given with the values); 350,000 tested, 1.6% active;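 active = significant combined selectivity score with lowered wild-type GFP, culture density cut under 30%, mutant RFP and density less affected; inactive = any of these conditions unmet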; also: one replicate is shown; some compounds called inactive have numbers as strong as hits
E coli growth = E. coli growth inhibition, primary screen, OD600; Escherichia coli growth, 23 h; stronger effect = lower value; OD600 absorbance (test concentration not listed); 330,000 tested, 0.21% active; AID 1053175, 2014;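 active = OD600 absorbance below the run mean of sample wells minus 3.6 SD, in any replicate, cut at about 0.56 in these data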;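 also: stock transfer was 300 nL into about 60 µL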
FGF22 binding = binders of human FGF22 protein, primary screen, FGF22 synaptogenesis inhibitor project, biophysical, thermal shift, single point; calls only at 9.99 µM; AID 651658, 2012; recombinant FGF22 thermal shift, SYPRO orange fluorescence; percent of sucrose octasulfate shift, DMSO zero; 340,000 tested, 1.5% active;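 active = melting point raised past a set limit in the mean and every replicate; three in four hits are not shown here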
Target sequence (Q9HCT0 whole entry, looked up): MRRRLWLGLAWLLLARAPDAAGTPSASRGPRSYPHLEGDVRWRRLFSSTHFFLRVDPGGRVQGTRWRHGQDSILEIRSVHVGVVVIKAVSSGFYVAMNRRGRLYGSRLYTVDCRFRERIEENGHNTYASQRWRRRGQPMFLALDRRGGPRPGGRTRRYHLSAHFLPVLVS
rRNA inh HTS OD600 = further read-out of rRNA inh HTS, marked with its call; OD600 change, %; measured here: OD600 growth;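 optical density of the mix in the first replicate; 0 = DMSO median and -100 = no signal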
rRNA inh HTS RFP = further read-out of rRNA inh HTS, marked with its call; RFP signal change, %; measured here: RFP humanized mutant strains;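 first replicate; 0 = DMSO median and -100 = no signal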
Numbers without * were called inactive; i = inactive; . = no result given. Only part of the results is shown; the hit share may differ from the screen's.

Each structure is followed by: HNF4A DNA FP, ALR inh, Beta2AR agonist, UCH37 inh, rRNA inh HTS, rRNA inh HTS OD600, rRNA inh HTS RFP, E coli growth, FGF22 binding
COc1cc(NC(=O)c2ccccc2)c(OC)cc1NC(=O)CN1C(=O)N(C)C2(CCCCC2)C1=O
  0.3, ., -3.9, 4.8, -6.0, -4.0, 2.8, 0.645, i
CC(=O)Oc1c(S(=O)(=O)c2ccccc2)c(C)nn1C(C)(C)C
  1.1, -1.8, 12.9, -1.6, ., ., ., 0.736, .
NCCSc1c(-c2ccc(F)cc2)[nH]c2ccccc12
  2.7, -0.2, 3.5, 1.2, 18.0, 5.9, -1.3, 0.611, .
CCN(CC)S(=O)(=O)c1cc(NC(=O)COC(=O)CCc2nc3ccccc3s2)ccc1C
  -1.2, -4.3, 8.0, 3.5, ., ., ., 0.673, .
Cc1cccc(-n2ncc3c(NCCc4ccc(S(N)(=O)=O)cc4)ncnc32)c1
  4.2, 10.4, -0.5, 6.2, -22.8, -61.1, -0.8, 0.69, i
O=C(NC1CCN(Cc2ccccc2)CC1)c1ccc2c(c1)OCCCO2
  -0.2, -2.9, 3.7, 3.1, 19.0, 2.0, 3.2, 0.662, i
Cn1nc(C(=O)N2CCN(c3ccccc3)CC2)c2c1-c1ccccc1S(=O)(=O)C2
  2.5, 52.1, 1.1, -0.4, -11.4, -16.9, -3.2, 0.664, i
O=C1CC(c2cccc(F)c2)C2=C(CCCC2=O)N1 (stereo unspecified)
  0.4, 9.5, -9.0, -11.5, ., ., ., 0.749, .
Cc1cc(C)n(-c2ccc(C(=O)NC(C)C)cc2)n1
  4.1, -6.7, -7.0, 0.8, 7.5, 3.5, -5.5, 0.617, i
COc1cc(O)c(C(CC(=O)N2CCCCC2)c2ccc(N(C)C)cc2)c(OC)c1 (stereo unspecified)
  0.0, ., 2.2, 2.7, ., ., ., 0.713, .
O=C(CC1C(=O)NCCN1Cc1cccc(F)c1)NC1CCC1 (stereo unspecified)
  2.6, -2.3, 15.1, -8.4, 13.7, 10.9, 0.5, 0.721, i
O=C(NCC(=O)N(c1ccccc1)C(C(=O)NC1CCCCC1)c1cccnc1)c1cccs1 (stereo unspecified)
  -0.8, -1.4, -11.5, 4.5, 12.9, 9.2, 8.8, 0.656, i
CC(NC(=O)c1ccccc1)c1nc2ccccc2n1Cc1ccccc1F (stereo unspecified)
  ., 1.9, ., 0.3, ., ., ., 0.732, .
O=C(CNC(=O)c1ccc2c(c1)OCO2)N/N=C/c1cccc([N+](=O)[O-])c1
  5.2, -2.7, -3.0, ., 16.8, 13.9, -2.4, ., i
CCOc1ccc(NC(=O)CNC(=O)c2cn(-c3ccccc3OC)c(=O)c3ccccc23)cc1
  -2.8, -14.1, -6.0, 1.9, ., ., ., 0.709, .
CC(C(=O)NC1CCCc2ccccc21)N1C(=O)C2CCCCC2C1=O (stereo unspecified)
  -0.1, -3.6, 1.1, 3.5, -4.0, 0.3, 0.1, 0.652, i
COc1cc([N+](=O)[O-])cc(/C=N/NC(=O)c2cccnc2)c1O
  -1.9, 3.5, 0.6, ., -8.0, -4.6, -4.2, ., i
O=c1c2ccccc2sc2nc(CCl)nn12
  -1.1, ., -13.2, ., 9.0, 20.6, -6.5, ., i
Cc1ccc(CNC(=O)/C=C/c2ccc(S(=O)(=O)NCc3ccco3)cc2)cc1
  -1.2, -1.0, -0.3, -3.1, -3.8, 6.7, -9.2, 0.71, i
O=C(CSc1nc(-c2ccccc2)cc(C(F)(F)F)n1)N1CCOCC1
  -3.9, -34.7, -11.7, 5.9, ., ., ., 0.7, .
O=C(Nc1ccc(Cl)cc1)NN1CC(=O)N(c2cccc(C(F)(F)F)c2)CC1=O
  -1.6, -2.7, -1.2, 5.2, -1.5, 3.3, -5.9, 0.708, i
CCOc1cc(/C=N/NC(=O)C(=O)NC2CC2)cc(Br)c1O
  2.7, 2.6, -8.9, ., 7.9, 13.8, 10.7, ., i
CCN(CC)CC(C)CNC(=O)C1(O)c2ccccc2NC(=O)N1c1ccc(Cl)c(Cl)c1 (stereo unspecified)
  0.3, -21.0, -3.8, 1.0, 3.8, 2.1, -0.5, 0.688, i
CC(C)CCNc1nc(N2CCCC2)c2c(c1C#N)CCN(C)C2
  -4.4, 89.2*, -1.3, -8.9, ., ., ., 0.664, .
COc1ccc2cc(Br)ccc2c1CC(=O)NC(C)C
  -2.8, -3.7, 0.5, 0.1, 9.9, 11.9, -1.5, 0.662, i
COc1cc(COc2ccc(-c3nnco3)cc2)ccc1OC(F)F
  2.0, -1.2, -5.0, 3.5, 8.2, 23.9, 5.7, 0.669, i
O=C(CSc1ccc(-c2ccco2)nn1)NCc1ccccc1
  0.1, -6.3, -16.3, -1.6, -3.8, 11.7, -3.1, 0.643, i
COc1ccc(OC)c(NC(=O)NNC(=O)COc2ccc([N+](=O)[O-])cc2)c1
  0.6, 5.6, 3.0, 3.7, 4.8, 3.6, -0.4, 0.688, i
Cn1cnnc1SCC(=O)Nc1ccc2nc(SCc3ccccc3Cl)sc2c1
  -5.8, 45.1, 6.4, 4.9, -45.2, -70.9, -10.5, 0.686, .
O=C(COC(=O)Cc1ccc(Cl)c(Cl)c1)NCc1ccco1
  -0.2, 7.6, -3.9, 5.4, -10.2, -11.1, -1.1, 0.654, i
Cc1ccc(CN2CCSCC2)cc1
  -0.8, 0.6, 0.5, -1.3, 20.1, 12.8, -2.0, 0.699, .
CCOc1ccc(-n2c(SCc3ccc(C#N)cc3)nnc2-c2cccnc2)cc1
  -0.3, -1.4, 3.1, 5.1, ., ., ., 0.681, .
COc1ccc(NC(=O)CSCC(=O)Nc2cc(Cl)ccc2N2CCCC2)cc1
  1.8, 98.6*, -4.4, 1.3, -8.6, -16.5, -2.7, 0.664, i
C=CCN(c1ccc(C(=O)Nc2ccc(C)cc2)cc1)S(C)(=O)=O
  1.4, -5.5, 0.0, 1.2, 9.3, 4.7, -0.2, 0.705, i
CCCCCCCCOC(=O)c1cc([N+](=O)[O-])c(Sc2ncnc3nc[nH]c23)c([N+](=O)[O-])c1
  2.0, ., 99.2*, ., ., ., ., ., i
Nc1nonc1-c1noc(COc2ccccc2Cl)n1
  -2.9, -7.3, -5.5, -0.6, ., ., ., 0.739, .
COC(=O)c1ccc(CO/N=C/c2ccccc2OC)cc1
  2.7, ., 5.8, ., -4.0, -14.1, 1.4, ., i
Fc1ccc(Oc2ncccn2)c(F)c1
  3.5, -10.2, -3.3, 0.2, 17.9, 14.2, 1.3, 0.689, .
O=C(N[C@H]1CC[C@H](CCNC(=O)C2CC2)O[C@@H]1CO)c1ccccn1
  1.2, ., ., ., -1.0, 3.2, -1.2, ., i
CCO[C@H]1OC(C(=O)N2CCCCCCC2)=C[C@@H](c2ccc(C(F)(F)F)cc2)[C@@H]1CCCO
  -0.5, 6.6, -5.9, 2.0, -4.5, 16.8, -1.9, ., i
Cc1nonc1OCCNc1ccc([N+](=O)[O-])cc1
  -5.5, -7.6, 1.1, 3.9, -0.5, -9.0, -0.5, 0.682, i
CCOc1ccc2c(c1)C(c1ccc(C)cc1)=NNC(c1ccc(OC)cc1)=N2
  -2.2, 4.6, 1.0, 0.5, -12.0, -13.9, -0.1, 0.717, i
COCCn1c(CCc2ccccc2)n[nH]c1=S
  -1.8, 85.2*, -5.7, 2.2, 4.0, 3.0, -2.4, 0.697, i
CCN(C(=O)COC(=O)c1nc2nc(C)cc(C)n2n1)C1CCCCC1
  1.9, -8.2, -8.4, 1.1, -2.4, 0.1, 0.0, 0.698, i
Cc1cc(=O)n2nc(N3CCC(C(=O)NCc4cccc(Cl)c4)CC3)sc2n1
  2.0, -0.2, 2.9, 0.7, -12.7, 0.2, -0.8, 0.593, i
COc1cccc(C(=O)/C=C/Nc2ccc(S(=O)(=O)Nc3cnc4ccccc4n3)cc2)c1
  5.9, 2.5, 11.6, -14.1, ., ., ., 0.715, .
O=C(CCNC(=O)c1ccc(Cl)cc1)NNC(=O)c1ccc(F)cc1
  -0.4, ., -2.2, 3.4, 1.5, 6.9, 2.2, 0.695, i
COC(=O)C1CCN(CC(=O)Nc2ccc(C(=O)Nc3ccccc3OC)cc2)CC1
  3.1, ., 3.7, 1.6, -0.3, 4.8, -3.7, 0.673, i
COC(=O)c1ccc(C2/C(=C(/O)c3ccc4c(c3)CC(C)O4)C(=O)C(=O)N2Cc2ccncc2)cc1 (stereo unspecified)
  -0.3, 0.1, -5.8, 10.7, -2.6, 20.4, -2.7, 0.7, i
CCC1(CC)C(=O)N(c2ccccc2)C(=N)N(c2ccccc2)C1=O
  2.0, ., -6.0, 3.4, 2.7, 14.3, -4.3, 0.69, i
O=C(NC1CC1)c1ccc(CSCc2ccc(Cl)cc2)o1
  2.9, ., ., ., -8.3, -16.9, -2.6, ., i
O=C(CN1CCOCC1)N1CCOCC1
  -0.9, ., 2.1, 3.2, 5.8, 8.9, 3.3, 0.652, i
CCOC(=O)c1c(-c2ccccc2)oc2cc(Br)c(O)cc12
  -1.9, 13.2, -5.8, -49.3, -3.2, 1.8, 2.9, 0.665, i
Cc1ccc(S(=O)(=O)N[C@H](C(=O)N2CCC(C(=O)N[C@H](C(=O)O)c3ccccc3)CC2)C(C)C)cc1
  -0.4, -2.8, 3.4, -1.4, 4.8, 5.3, 3.4, 0.745, i
Cc1ccc(CSCC(=O)N(C)CC(=O)Nc2ccccc2Cl)cc1
  -2.1, -4.1, 6.3, 0.1, -21.1*, -14.9*, -1.4*, 0.615, i
O=C(COC(=O)/C=C/c1cccc(F)c1)NCc1ccc2c(c1)OCO2
  0.8, ., ., ., 5.2, 13.5, 2.2, ., i
O=C(COC(=O)Cc1n[nH]c(=O)c2ccccc12)Nc1ncc(Cl)cc1Cl
  -5.5, -1.2, -5.4, 5.0, -0.7, 0.5, -2.1, 0.661, i
